Screening data from PubChem BioAssay.
Autofluor counter = compound fluorescence in toxin protease inhibitor counterscreen; 3.1% of 360,000 active; fluorescence intensity (no concentration beside the values); AID 624483; compound autofluorescence counterscreen, microsphere flow cytometry; active compounds read high;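 active = at least 3 SD above the mean of all compounds, about 16000 in these data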;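 note: 100 nL of 1 mM stock went into each well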
Numbers without * were called inactive. An excerpt; count on the stated rates, not on these rows.

What do the screens show for `C#CCN(C[C@@H]1[C@@H](OC(=O)NCC2CCCCC2)[C@@H](OC(=O)NCC2CCCCC2)Cn2c(=O)ccc(=O)n21)S(=O)(=O)c1ccc(C)cc1`?
Autofluor counter: 3857

How did Cc1ccn(CC(=O)N2CCCC(N3CCN(c4cccc(C(F)(F)F)c4)CC3)C2)n1 (stereo unspecified) do in these assays?
Autofluor counter: 3416

What do the screens show for `COc1ccccc1N1CCN(C(=O)[C@@H]2CCCN2C2=NS(=O)(=O)c3ccccc32)CC1`?
Autofluor counter: 3764

Results for O[C@@H]1C[C@H](c2ccc(Cl)cc2)N(Cc2cccs2)C[C@H]1n1cc(C2CC2)nn1 ?
Autofluor counter: 3811

How did Cc1ccc(NC(=O)C2(C)CCN2Cc2csc3ccccc23)cc1 (stereo unspecified) do in these assays?
Autofluor counter: 3686

Results for CCCC(=O)N1CCCC1(C)C(=O)Nc1cccc(OC(C)C)c1 (stereo unspecified) ?
Autofluor counter: 4088

What do the screens show for `CC(C)CC1C(=O)N(Cc2cn(CC3CCCCC3)nn2)CCS(=O)(=O)N1Cc1ccc(-c2ccc(Cl)cc2)cc1` (stereo unspecified)?
Autofluor counter: 3056

What do the screens show for `COc1cc(Cl)ccc1OCc1cc(C(=O)N2CCN(C3CCCCC3)CC2)no1`?
Autofluor counter: 3793

Results for CCCCC[C@H](C)N1C[C@H](COCc2ccccc2)Oc2cc(N3CCC[C@@H]3COC)ccc2S1(=O)=O ?
Autofluor counter: 5632

What do the screens show for `CSc1ccc(C(O)c2ncc(-c3ccc(F)cc3)[nH]2)cc1` (stereo unspecified)?
Autofluor counter: 3590

Results for CCCC(=O)N1CCC1(C)C(=O)NS(=O)(=O)c1cccc(C)c1 (stereo unspecified) ?
Autofluor counter: 3869

How did CCOc1ccc(CCN2C(=S)N([C@@H](Cc3ccc(O)cc3)CN3CCC[C@@H]3CN3C(=S)NC[C@@H]3Cc3ccccc3)C[C@@H]2Cc2ccccc2)cc1 do in these assays?
Autofluor counter: 5958

Results for CC(C)CC1NC(=O)c2cc3ccccc3cc2-n2c1nc1ccc(F)cc1c2=O (stereo unspecified) ?
Autofluor counter: 3817

How did CC1Cc2[nH]c(=S)[nH]c(=O)c2C(c2ccc(C(C)C)cc2)O1 (stereo unspecified) do in these assays?
Autofluor counter: 4075

Results for COCCCN1C(=O)C(CC(=O)NC(c2ccccc2)c2ccccc2)CC(C(=O)N(C(C)C)C(C)C)=C1C (stereo unspecified) ?
Autofluor counter: 6239

How did CCc1nc2c(OCCC3CCCCC3)cccn2c1N(C)C(=O)c1ccncc1 do in these assays?
Autofluor counter: 3828

What do the screens show for `COc1cccc(C(NC(C)=O)c2nc(-c3ccccc3C)cs2)c1` (stereo unspecified)?
Autofluor counter: 3369

Results for COc1cc(-c2cnc3c(NC(C)=O)cc(-c4ccccc4CN(C)C)cn23)cc(OC)c1OC ?
Autofluor counter: 3863

What do the screens show for `Cc1ccc(CNc2ncnc3ccc(-c4ccc(CO)o4)cc23)o1`?
Autofluor counter: 2930

How did CCN(CC)C(=O)c1cccc(-c2csc(C(O)c3cccc(Cl)c3)n2)c1 (stereo unspecified) do in these assays?
Autofluor counter: 3888

Results for CNc1cc(-c2ccc(OC)nc2)ncn1 ?
Autofluor counter: 2954

How did O=C(OCc1cn([C@@H]2CN(CC3CCCCC3)[C@@H](c3ccccc3)C[C@H]2O)nn1)c1ccccc1 do in these assays?
Autofluor counter: 3165

What do the screens show for `c1cnn2c(-c3ccc4c(c3)CCO4)cnc2c1`?
Autofluor counter: 3642

Results for C[C@@H]1CCCCO[C@@H](CN(C)C(=O)Cc2ccccc2)[C@@H](C)CN([C@H](C)CO)C(=O)c2cc(N(C)C)ccc2O1 ?
Autofluor counter: 3664

How did Cc1cccc(C)c1-n1nnnc1C1c2ccccc2C(=O)N1CCc1ccc(O)cc1 (stereo unspecified) do in these assays?
Autofluor counter: 4295

What do the screens show for `C=CCOc1cccn2c(N(C=O)Cc3ccc(OC)cc3)c(CC)nc12`?
Autofluor counter: 3039

Results for CCCCCCCCN1C(=O)[C@H](CC(=O)N2CCN(C(=O)c3ccco3)CC2)C[C@@]2(C(=O)OCC)CCCC=C12 ?
Autofluor counter: 5904

Results for Cc1ccccc1CN(C)C[C@@H]1OCc2cnnn2CCCC(=O)N([C@H](C)CO)C[C@H]1C ?
Autofluor counter: 3557

What do the screens show for `O=C1NC[C@H](CCCCN2CCN(Cc3ccccc3)C(=O)C2=O)N(CCc2ccc(O)cc2)C1=O`?
Autofluor counter: 5920

What do the screens show for `CS(=O)(=O)n1c2ccccc2c(=O)n1-c1ccccc1CCl`?
Autofluor counter: 5954

How did Cc1ccc(S(=O)(=O)N2C[C@H]3C(=O)C[C@@H](c4cccc(Cl)c4)N(S(=O)(=O)c4ccc(C)cc4)[C@H]3C[C@H]2c2ccccc2)cc1 do in these assays?
Autofluor counter: 3049

Results for CC(C)N1CCCC(C)(C(=O)Nc2ccccc2)C1 (stereo unspecified) ?
Autofluor counter: 3156

What do the screens show for `O=C(NCc1ccc2c(c1)OCO2)c1[nH]c(C(F)(F)F)nc1-c1ccccc1`?
Autofluor counter: 5668

Results for CC(=O)OC1C(OC(C)=O)C2C(C)CC3OC(=O)C(C)C3CC2(C)C1OC(C)=O (stereo unspecified) ?
Autofluor counter: 3735

How did O=C(O)c1ccc(CNC(=O)c2ccc(S(=O)(=O)N3CCCC3)cc2)cc1 do in these assays?
Autofluor counter: 3939

How did Cc1ccc(OCc2cc(C(=O)N(C)C3CCCc4ccccc43)no2)cc1C (stereo unspecified) do in these assays?
Autofluor counter: 3455

Compounds above containing an aryl methoxy group:
What do the screens show for `COc1ccccc1N1CCN(C(=O)[C@@H]2CCCN2C2=NS(=O)(=O)c3ccccc32)CC1`?
Autofluor counter: 3764

What do the screens show for `COc1cc(Cl)ccc1OCc1cc(C(=O)N2CCN(C3CCCCC3)CC2)no1`?
Autofluor counter: 3793

What do the screens show for `COc1cccc(C(NC(C)=O)c2nc(-c3ccccc3C)cs2)c1` (stereo unspecified)?
Autofluor counter: 3369

Results for COc1cc(-c2cnc3c(NC(C)=O)cc(-c4ccccc4CN(C)C)cn23)cc(OC)c1OC ?
Autofluor counter: 3863

Results for CNc1cc(-c2ccc(OC)nc2)ncn1 ?
Autofluor counter: 2954

What do the screens show for `C=CCOc1cccn2c(N(C=O)Cc3ccc(OC)cc3)c(CC)nc12`?
Autofluor counter: 3039

(more compounds)
How did O=C(O)c1sc(C(=O)O)c(-c2ccccc2)c1-c1ccccc1 do in these assays?
Autofluor counter: 4130

How did CCOC(=O)[C@]12CCC=C1N(Cc1ccc(Cl)cc1Cl)C(=O)[C@H](CC(=O)NCC1CCCCC1)C2 do in these assays?
Autofluor counter: 6049

Results for COc1ccc(CN2C(=O)C(CC(=O)NCCCN(C)C)CC(C(=O)N(C(C)C)C(C)C)=C2C)cc1 (stereo unspecified) ?
Autofluor counter: 2844

Results for CN1OC[C@@H]2CN(C(=O)CCc3ccccc3)[C@H](c3ccc(N4CCCCC4)cc3)C[C@@H]21 ?
Autofluor counter: 6156

Results for CCC[C@H]1CN(c2ccc(OC)cc2)C(=O)[C@@H]1CC(=O)Nc1ccccc1 ?
Autofluor counter: 3889

How did COc1cccc(NC(=O)C2(C)CCN2CCc2ccccc2)c1 (stereo unspecified) do in these assays?
Autofluor counter: 4030

Results for COc1ccc(-c2ccccc2)cc1NC(=O)[C@@H]1O[C@H](CO)[C@H](O)[C@H](O)[C@H]1O ?
Autofluor counter: 3879

What do the screens show for `CC1(CSc2ccccc2)CC(=O)N1` (stereo unspecified)?
Autofluor counter: 2809

How did CC1(C(=O)Nc2ccc3nc[nH]c3c2)CCN1C(=O)C1(c2ccccc2)CCCC1 (stereo unspecified) do in these assays?
Autofluor counter: 3931

Results for O=C(NC(c1ccc2ccccc2n1)c1cccs1)C1CCN(Cc2cccc(C(F)(F)F)c2)CC1 (stereo unspecified) ?
Autofluor counter: 7909

What do the screens show for `NC(Cc1ccc(F)cc1)c1csc(Nc2ccc(C(=O)c3ccccc3)cc2)n1` (stereo unspecified)?
Autofluor counter: 3768

How did OCc1cccc(-c2csc(C(O)c3ccccc3)n2)c1 (stereo unspecified) do in these assays?
Autofluor counter: 4135

How did CCc1nc2ccc(C(=O)NCC3CCCCC3)cn2c1N(C)Cc1ccc(OC)cc1 do in these assays?
Autofluor counter: 3602

Results for CC1(C(=O)NS(=O)(=O)C2CC2)CCN(C(=O)c2cccc(Cl)c2)C1 (stereo unspecified) ?
Autofluor counter: 3917

What do the screens show for `COc1cccc(C(=O)N2[C@H](COCc3ccccc3)C=CS2(=O)=O)c1`?
Autofluor counter: 5658

What do the screens show for `Clc1ccc(-c2nc3c4ccccc4ccn3c2Cc2cccc(Cl)c2)cc1`?
Autofluor counter: 6323

What do the screens show for `CCCOc1ccc(F)cc1-c1cc(C(=O)Nc2cc(OC)c(OC)c(OC)c2)[nH]n1`?
Autofluor counter: 2935

Results for O=C(COc1ccc(Cl)cc1Cl)NCCN1CCCCC1 ?
Autofluor counter: 3974

What do the screens show for `Cc1cccc(S(=O)(=O)NC(=O)C2(C)CCN2C(=O)CC2CCCCC2)c1` (stereo unspecified)?
Autofluor counter: 3792

What do the screens show for `CC(C)(C)c1ccccc1NC(=O)Nc1nc(C(N)c2ccccc2)cs1` (stereo unspecified)?
Autofluor counter: 2964

How did OC(c1ccc(-c2ccccc2)cc1)c1ncc(-c2cccc(F)c2)[nH]1 (stereo unspecified) do in these assays?
Autofluor counter: 3543

What do the screens show for `CCCC#Cc1cnc2c(c1)C(=O)N([C@H](C)CO)C[C@@H](C)[C@@H](CN(C)C(=O)Nc1cccc(F)c1)O2`?
Autofluor counter: 3603

How did CCCS(=O)(=O)NC(=O)C1(C)CCN(C(=O)c2cccc3ccccc23)C1 (stereo unspecified) do in these assays?
Autofluor counter: 3053

How did NC(=O)c1cccc(-c2coc3c(C(=O)NC4CCCCC4)cccc23)c1 do in these assays?
Autofluor counter: 3668

Sorted by count of non-hydrogen atoms (ascending): part of the list above
How did OCc1cccc(-c2csc(C(O)c3ccccc3)n2)c1 (stereo unspecified) do in these assays?
Autofluor counter: 4135

What do the screens show for `Cc1cccc(S(=O)(=O)NC(=O)C2(C)CCN2C(=O)CC2CCCCC2)c1` (stereo unspecified)?
Autofluor counter: 3792

How did CCc1nc2ccc(C(=O)NCC3CCCCC3)cn2c1N(C)Cc1ccc(OC)cc1 do in these assays?
Autofluor counter: 3602

Later entries
Results for CCOC(=O)[C@]12CCC=C1N(Cc1ccc3c(c1)OCO3)C(=O)[C@H](CC(=O)NCc1cccc3ccccc13)C2 ?
Autofluor counter: 5960

What do the screens show for `CN(C)S(=O)(=O)n1cc(/C=C(\NC(=O)c2ccccc2F)C(=O)NCCN2CCOCC2)c2ccccc21`?
Autofluor counter: 3079

What do the screens show for `O=C(N/N=C/c1ccc(N2CCOCC2)s1)c1ccc(O)cc1`?
Autofluor counter: 3717

Results for COc1cc(C)ccc1OCc1cc(C(=O)NC(c2ccccn2)C(F)(F)F)no1 (stereo unspecified) ?
Autofluor counter: 3481

How did CCCCN(C)c1c(C)nc2ccc(C(=O)Nc3ccc(OC)c(OC)c3)cn12 do in these assays?
Autofluor counter: 2803

How did COc1ccc(NC(=O)CCCOc2ccc(C)cc2)cc1S(=O)(=O)N1CCCCC1 do in these assays?
Autofluor counter: 3940

What do the screens show for `Cc1ccc(CC2(C)C(=O)Nc3c(Cl)ccc(Cl)c32)cc1` (stereo unspecified)?
Autofluor counter: 3985

What do the screens show for `Cc1cc(C)cc(CC(=O)N2CCC2(C)C(=O)NS(=O)(=O)c2ccccc2C)c1` (stereo unspecified)?
Autofluor counter: 3683

How did COc1ccc(CNC(=O)C2CCN(S(=O)(=O)c3ccc(N4CCCC4=O)cc3)CC2)cc1 do in these assays?
Autofluor counter: 3625

How did C[C@@H](O)CNC(=O)c1[nH]cnc1C(=O)Nc1cccc(Cl)c1 do in these assays?
Autofluor counter: 2843

What do the screens show for `COc1ccc(NC(=O)N(C)C[C@@H]2OCc3cn(nn3)CCCC(=O)N([C@H](C)CO)C[C@H]2C)c(OC)c1`?
Autofluor counter: 3762

Results for CC1C(=O)N(Cc2cn(CC3CCCCC3)nn2)CCS(=O)(=O)N1Cc1ccc(-c2cccc(CO)c2)cc1 (stereo unspecified) ?
Autofluor counter: 3882

How did CC(=O)C(=Cc1ccccc1)c1ccccc1 do in these assays?
Autofluor counter: 6130

How did O=S(=O)(c1ccc(Cl)cc1)N1Cc2ccccc2-n2nncc2C1 do in these assays?
Autofluor counter: 2998

Results for CC(=O)c1cccc(-c2csc3ncnc(Sc4nnnn4C)c23)c1 ?
Autofluor counter: 3613

How did O=C(O)c1cccc(-c2csc(C(O)c3ccc(F)cc3)n2)c1 (stereo unspecified) do in these assays?
Autofluor counter: 2845

What do the screens show for `CC(=O)c1ccc(OCC(=O)Nc2nnc(C3CC3)s2)cc1`?
Autofluor counter: 4000

Results for CCCC(=O)N1CCC1(C)C(=O)Nc1ccccc1-c1ccccc1 (stereo unspecified) ?
Autofluor counter: 3976

How did COc1ccc2c([N+](=O)[O-])c(N3CCOCC3)[nH]c2c1 do in these assays?
Autofluor counter: 3922

Results for CCOC(=O)C1=C[C@@H](C(C)(C)C)N(S(=O)(=O)c2ccc(C)cc2)[C@H]1c1ccccc1 ?
Autofluor counter: 5800

What do the screens show for `CNc1ncnc2c1ncn2[C@H]1CN(CCOC)C[C@@H](CO)O1`?
Autofluor counter: 3479

How did CC(C)C1CC2=C(C(=O)OC(C)(C)O2)C(c2ccc(F)cc2)O1 (stereo unspecified) do in these assays?
Autofluor counter: 5878

What do the screens show for `CSc1ccc(CN2CCC(C)(Oc3ccccc3C)C2)cc1` (stereo unspecified)?
Autofluor counter: 3940

How did COc1ccc(OCc2nnc(SCC(=O)Nc3oc(C)c4c(C)n[nH]c(=O)c34)n2C)cc1 do in these assays?
Autofluor counter: 3495

How did NC(=O)C(CCc1nc2ccccc2[nH]1)NS(=O)(=O)c1ccccc1 (stereo unspecified) do in these assays?
Autofluor counter: 3006
